Bioassay records from PubChem BioAssay.
FEN1 inhibitor – blocks human flap endonuclease 1; 390,000 tested, 0.35% active; P39748; Potency, µM (titrated, usually from 114 µM), for inactives: at the highest dose activity change, negative = inhibition, usual class: inhibitors; Recombinant FEN1 flap cleavage, fluorescence, 15 min; AID 588795; further: nearly all actives have a fitted effect of over 65% in size
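Compounds are tested as a concentration series against 10 nM FEN1; after a 15 min room-temperature preincubation, 50 nM substrate starts cleavage, with plate reads at 0 and 15 min. Normalized responses are fitted by a Hill equation.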
TDP1 block – blocks human tyrosyl-DNA phosphodiesterase 1; recombinant TDP1, AlphaScreen DNA substrate cleavage; Potency, µM (top dose mostly 130 µM), without a hit: at the top dose activity change, negative = inhibition, actives largely listed as inhibitors; 350,000 tested, 0.28% active; Q9NUW8; further: nearly all actives have a fitted effect of over 40% in size
Target sequence (Q9NUW8 whole entry, looked up): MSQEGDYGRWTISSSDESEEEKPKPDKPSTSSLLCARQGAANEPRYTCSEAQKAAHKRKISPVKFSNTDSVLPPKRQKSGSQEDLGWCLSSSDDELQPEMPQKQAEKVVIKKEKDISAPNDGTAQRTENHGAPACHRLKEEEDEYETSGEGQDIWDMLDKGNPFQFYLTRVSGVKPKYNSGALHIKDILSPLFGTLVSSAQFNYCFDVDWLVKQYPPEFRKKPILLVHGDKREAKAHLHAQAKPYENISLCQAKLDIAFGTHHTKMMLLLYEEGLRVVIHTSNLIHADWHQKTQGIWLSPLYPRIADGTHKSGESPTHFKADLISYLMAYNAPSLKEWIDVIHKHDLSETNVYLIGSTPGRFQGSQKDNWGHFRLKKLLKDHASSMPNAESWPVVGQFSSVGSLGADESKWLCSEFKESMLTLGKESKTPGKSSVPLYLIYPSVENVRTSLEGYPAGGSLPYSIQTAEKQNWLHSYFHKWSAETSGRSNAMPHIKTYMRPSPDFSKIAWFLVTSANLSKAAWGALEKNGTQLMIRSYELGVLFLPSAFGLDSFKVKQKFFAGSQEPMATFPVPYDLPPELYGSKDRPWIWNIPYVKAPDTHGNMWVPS
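Compounds were preincubated with Tdp1 (1 nM final) for 15 min at room temperature before substrate (15 nM final) started a 5 min reaction; beads (10 ug/ml final) were then added for 10 min before AlphaScreen detection.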
An asterisk follows results filed as active; · = no result given; & = joins results of further samples. The call rests on the fitted dose curve; in most records, active means well fitted inhibition curve with a large enough effect; inconclusive means small, poorly fitted or top-dose-only effect; inactive means no such curve, though single readings can be large or run the other way. On the % scale 0 is the no-effect control and ±100 the full control effect; potency means the concentration at half of the fitted maximal effect. An excerpt, and most or all hits are left out here.

SMILES	FEN1 inhibitor	TDP1 block
CCN(CC(=O)Nc1ccc2c(c1)CCC2)Cc1nc2ccccc2c(=O)[nH]1	-2.9%	7.9%
O=C(NCc1ccco1)C(=O)N1CCCC1	2.2%	6.0%
Cc1ccc2c(C)c(C(=O)Nc3c(C)n(C)n(-c4ccccc4)c3=O)oc2c1	-4.9%	-2.0%
COc1ccccc1N1CCN(C(=O)Cc2c(C(=O)O)[nH]c3ccc(Cl)cc23)CC1	0.1%	2.9%
CCOc1ccc(C(=O)N(c2ccccn2)C2CCCCC2)cc1	13.3%	3.0%
O=C(O)c1ccc(NC2=C(N3CCOCC3)C(=O)c3ccccc3C2=O)cc1	-2.1%	-1.2%
Cc1cccc(-c2nc(CS(=O)CC(=O)NC(C)CCc3ccccc3)c(C)o2)c1 (stereo not drawn)	-2.1%	6.4%
Cc1ccc(-c2nc(-c3cccnc3)no2)cc1	7.5%	-2.0%
COc1ccc(NC(=S)Nc2cccc(Cl)c2)cc1OC	1.7%	4.8%
COc1ccc(COC(=O)c2ccc(S(=O)(=O)N3CCC(C)CC3)cc2)cc1	-5.2%	0.2%
Cc1ccc(S(=O)(=O)c2nc(-c3cccs3)oc2SCC(N)=O)cc1	-13.0%	5.9%
CCN(Cc1ccncc1)C(=O)c1cc(Br)cc(Br)c1O	-14.7%	-6.7%
Cc1ccccc1-c1nc(S(=O)(=O)c2ccc(Cl)cc2)c(NCCN2CCOCC2)o1	-22.9%	7.8%
Cc1nc(-c2ccccc2)ccc1C(=O)O	1.6%	3.5%
CC(=O)c1ccc(C(=O)N2CCC(CO)(Cc3cccc(C(F)(F)F)c3)CC2)cc1	-3.6%	0.0%
CC(C)(C)[C@@H]1C=C(C(N)=O)O[C@H](OCc2ccc(CO)cc2)C1	1.6%	2.4%
COc1cccc(NC(=O)Nc2cc(C(=O)NCC3CCCO3)ccc2N2CC3CC(C2)c2cccc(=O)n2C3)c1 (stereo not drawn)	-1.1%	5.5%
COc1ccc2c(c1)cc(C)c1nnc(SCC(=O)N3CCN(C(=O)c4ccco4)CC3)n12	-2.3%	-3.1%
CC(C)(C)n1nnnc1C(c1cccs1)N(Cc1cccnc1)CC1CCCO1 (stereo not drawn)	-1.9%	2.9%
CN1C(=O)/C(=C/c2ccco2)SC1=Nc1ccc(N2CCOCC2)cc1	-5.6%	9.1%
CCn1ncc(C2=NOC(C(=O)NCc3ccc(Cl)cc3)C2)c1C (stereo not drawn)	0.9%	0.0%
O=C(COC(=O)c1cncc(Br)c1)NCC1CCCO1 (stereo not drawn)	8.0%	1.0%
COc1ccc(CCNC(=O)Cn2c([N+](=O)[O-])cnc2C)cc1OC	1.2%	3.7%
CCOc1ccc(CN2CCN(Cc3c(C)nn(CC)c3C)CC2CCO)cc1 (stereo not drawn)	0.0%	-4.8%
CCOC(=O)CC(NC(=O)c1cccc2c1C(=O)N(Cc1cccnc1)C2)c1ccc(OCC)c(OC)c1 (stereo not drawn)	-5.1%	5.4%

Other compounds follow.
SMILES	FEN1 inhibitor	TDP1 block
CCOc1ccccc1N1CC(C(=O)N2CCc3ccccc32)CC1=O (stereo not drawn)	0.0%	-1.0%
Cc1ccc(NS(=O)(=O)c2ccc(CCC(=O)N3CCCC3)cc2)cc1	-1.4%	1.2%
C[C@H](N)c1nnc(SCC(=O)c2ccc(Cl)cc2)o1	-6.7%	4.9%
CS(=O)(=O)Nc1ccccc1C(=O)Nc1cccc(Cl)c1	-6.8%	8.4%
O=C(COc1cccc2c1CCN(Cc1ccc(Br)cc1)C2=O)N1CCOCC1	-2.4%	6.0%
Cc1ccc(C(C(=O)NC2CCCC2)N(Cc2cccnc2)C(=O)c2snc(C(N)=O)c2N)o1 (stereo not drawn)	-7.2%	9.4%
Cc1cnc(C(=O)N2CCCC(N3CCN(c4ccccc4F)CC3)C2)cn1 (stereo not drawn)	1.1%	4.0%
O=C(CSc1nnc(CCCOc2ccc(Cl)cc2Cl)o1)Nc1ccc(C(=O)O)cc1	3.4%	0.0%
C=C(C)CSc1cc(C)nc2c(-c3ccccc3)c(C)nn12	-23.1%	2.7%
CCn1c(SCc2nc3ccccc3s2)nnc1-c1cccs1	-1.3%	3.4%
O=C(NC(=S)NC1CCCCC1)c1ccccc1[N+](=O)[O-]	-11.4%	6.2%
COc1ccc(C2SCCN2S(=O)(=O)c2ccccc2)cc1OC (stereo not drawn)	1.5%	3.1%
Cc1cc(C)c(NC(=O)Cn2c(=O)c3cccn3c3ccccc32)c(C)c1	4.1%&6.6%	-7.1%&5.2%
COc1ccc(F)cc1S(=O)(=O)N1CCN(C(=O)c2ccco2)CC1	9.9%	·
CCc1cccc(CC)c1NC(=O)COn1nnc2ccc(C(F)(F)F)cc21	11.3%	-4.4%
CC1Sc2ccc(S(=O)(=O)CCC(=O)NC3CCCC(C)C3C)cc2NC1=O (stereo not drawn)	20.2%	7.3%

Exported with values under each structure: 18 of the compounds above.
Second line of a record – FEN1 inhibitor, TDP1 block
CCOc1ccc(CN2CCN(Cc3c(C)nn(CC)c3C)CC2CCO)cc1 (stereo not drawn)
→ 0.0%, -4.8%
CCOC(=O)CC(NC(=O)c1cccc2c1C(=O)N(Cc1cccnc1)C2)c1ccc(OCC)c(OC)c1 (stereo not drawn)
→ -5.1%, 5.4%
CCOc1ccccc1N1CC(C(=O)N2CCc3ccccc32)CC1=O (stereo not drawn)
→ 0.0%, -1.0%
Cc1ccc(NS(=O)(=O)c2ccc(CCC(=O)N3CCCC3)cc2)cc1
→ -1.4%, 1.2%
C[C@H](N)c1nnc(SCC(=O)c2ccc(Cl)cc2)o1
→ -6.7%, 4.9%
CS(=O)(=O)Nc1ccccc1C(=O)Nc1cccc(Cl)c1
→ -6.8%, 8.4%
O=C(COc1cccc2c1CCN(Cc1ccc(Br)cc1)C2=O)N1CCOCC1
→ -2.4%, 6.0%
Cc1ccc(C(C(=O)NC2CCCC2)N(Cc2cccnc2)C(=O)c2snc(C(N)=O)c2N)o1 (stereo not drawn)
→ -7.2%, 9.4%
Cc1cnc(C(=O)N2CCCC(N3CCN(c4ccccc4F)CC3)C2)cn1 (stereo not drawn)
→ 1.1%, 4.0%
O=C(CSc1nnc(CCCOc2ccc(Cl)cc2Cl)o1)Nc1ccc(C(=O)O)cc1
→ 3.4%, 0.0%
C=C(C)CSc1cc(C)nc2c(-c3ccccc3)c(C)nn12
→ -23.1%, 2.7%
CCn1c(SCc2nc3ccccc3s2)nnc1-c1cccs1
→ -1.3%, 3.4%
O=C(NC(=S)NC1CCCCC1)c1ccccc1[N+](=O)[O-]
→ -11.4%, 6.2%
COc1ccc(C2SCCN2S(=O)(=O)c2ccccc2)cc1OC (stereo not drawn)
→ 1.5%, 3.1%
Cc1cc(C)c(NC(=O)Cn2c(=O)c3cccn3c3ccccc32)c(C)c1
→ 4.1%&6.6%, -7.1%&5.2%
COc1ccc(F)cc1S(=O)(=O)N1CCN(C(=O)c2ccco2)CC1
→ 9.9%, ·
CCc1cccc(CC)c1NC(=O)COn1nnc2ccc(C(F)(F)F)cc21
→ 11.3%, -4.4%
CC1Sc2ccc(S(=O)(=O)CCC(=O)NC3CCCC(C)C3C)cc2NC1=O (stereo not drawn)
→ 20.2%, 7.3%
